PrP UTR inh: inhibition of PrP 5' UTR reporter expression; cell-based PrP 5' UTR mRNA reporter, plate reader; inhibition, % (concentration not given with the values); actives 0.35% (n = 340,000); AID 488862;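 active = every replicate at 50% or more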;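 note: 0 = median of the neutral control wells; tested in H4 reporter cells; numbers are from one replicate; inactives centre near -14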
BJeLR viability: BJeLR cell viability loss; inhibition, % (concentration not given with the values); BJeLR (HRASV12) viability, CellTiter-Glo ATP luminescence, 48 h; reference of the scale not given here; actives 0.17% (n = 300,000);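 active = replicate mean above 50%; inconclusive = above 50% but judged a plate artefact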;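 note: 50 nL library stock added to about 25 µL; numbers are from one replicate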
RN4220 kill: kills Staphylococcus aureus RN4220. S. aureus RN4220 growth, OD600, 16 h. inhibition, % (concentration not given with the values). actives 0.33% (n = 330,000). AID 1259311;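 active = z-score of -3 or lower and OD600 up to 0.18 on both plates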;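 note: plate controls were untreated cells for no effect and reference antibiotic for full effect; stock transfer was 100 nL into about 80 µL; one replicate is shown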
Bead autofluor: counter-screen for toxin protease inhibitors: compound fluorescence; compound autofluorescence counterscreen, microsphere flow cytometry; stronger effect = higher value; fluorescence intensity (test concentration not listed); actives 3.1% (n = 360,000);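 active = at least 3 SD above the mean of all compounds, about 16000 in these data; inconclusive = too few beads counted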;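 note: 100 nL of 1 mM stock went into each well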
Sa ugtP lethal: compounds lethal to S. aureus RN4220 ugtP deletion mutant; OD600 growth, 16 h; some inactives read as strong as hits; actives 0.54% (n = 330,000); growth inhibition, % (no concentration beside the values);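 active = z-score under -3 and OD600 up to 0.15 on both plates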;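 note: plate controls were untreated wells for no effect and antibiotic for full effect; wells of about 80 µL received 100 nL stock; the first replicate is given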
Mtb hypoxia rep: inhibitors of hypoxia-regulated fluorescent reporter in Mycobacterium tuberculosis. M. tuberculosis hypoxia-regulated fluorescent reporter, fluorescence. fluorescence inhibition, % (no concentration beside the values). actives 0.1% (n = 300,000);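 active = 35 to 45% if threefold the growth effect, above 45% if 1.5-fold the growth effect; inactive = the rest, general growth blockers included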;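 note: wells of about 50 µL received 100 nL stock; 0% = vehicle wells and 100% = reference inhibitor wells; whole bacteria with a GFP reporter of the hypoxia response; strong numbers were not always called active; many hits fall short of the cut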
Mtb hypoxia rep growth: also measured in Mtb hypoxia rep; calls as there; growth inhibition, %; measured here: M. tuberculosis growth (absorbance);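 0% = vehicle and 100% = reference antibiotic; read after six days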
* hit, by the source's call; ? = inconclusive; / = no result given. Outcome played no part in choosing rows, and some 4.1% of all compounds hit somewhere here.

Each structure is followed by: PrP UTR inh	BJeLR viability	RN4220 kill	Bead autofluor	Sa ugtP lethal	Mtb hypoxia rep	Mtb hypoxia rep growth
1: COCCn1c(SCC(=O)Nc2ccccc2OC)nc2c(oc3ccccc32)c1=O
  1	6	3.9	1872	10	13	10
2: COc1cc(N2CCCC2)c(OC)cc1/C=C1/NC(=S)NC1=O
  -4	-5	2.5	7298	-4	10	-1
3: C[C@]12c3[nH]c4ccc(Cl)cc4c3CCN1C(=O)[C@@H](CC(=O)NCCN1CCOCC1)C[C@@H]2C(=O)N1CCCCC1
  -15	/	4.3	3505	1	-8	8
4: O=C(CSc1nnc2ccccn12)N1CCc2ccccc21
  -81	4	-4.2	4926	-2	-6	-4
5: Cc1cccc2cc(CN(Cc3ccccc3)C(=O)N(C)C)c(=O)[nH]c12
  11	-10	-2.2	3359	4	0	2
6: CCOc1ncccc1C(=O)OCc1cn2cc(Cl)ccc2n1
  -21	-1	-0.2	4490	-8	-3	4
7: O=c1c2c(ncn2C2CCCC2)n(Cc2ccccc2)c(=O)n1CCOc1ccccc1
  -16	-5	-3.9	2138	-3	-1	1
8: CCOC(=O)C1CCN(c2cc3c(cc2NC(=O)c2ccc(OC)c(OC)c2)n(C)c(=O)n3C)CC1
  -5	-18	2.6	4135	-10	7	4
9: CCC1CCCCN1CCCNC(=O)Cn1cnc2sc(C)c(S(=O)(=O)N3CC(C)CC(C)C3)c2c1=O (configuration not stated)
  -20	-8	/	8446	/	/	/
10: O=C(c1ccc(Cl)cc1)c1coc2ccc(O)cc12
  -98	2	-6.5	3452	-9	13	11
11: CCOc1cc(-c2c(C#N)c(N)nc3c2CCCC3C)ccc1O (configuration not stated)
  -11	-6	6.8	4688	1	4	12
12: CC1C(=O)C(C)C(c2ccc(Br)cc2)NC1c1ccc(Br)cc1 (configuration not stated)
  -30	3	-7.4	3599	7	-6	3
13: CSc1nc2ccc(NS(=O)(=O)c3ccccc3F)cc2s1
  -13	2	-2.9	2592	30	15	11
14: Cc1ccc(N(CN2CCCC2=O)C(=O)c2ccc(C)c(C)c2)cc1
  -20	4	2.6	21259*	2	6	11
15: CCSCc1nnc(SCC(=O)Nc2ccc(F)cc2)n1CC
  -15	-6	-1.1	4474	1	4	0
16: O=C(CSc1nnc(-c2ccco2)n1Cc1ccco1)NCc1cccs1
  -22	4	3.4	4443	-1	3	4
17: Cc1nn(CCC#N)c2[nH]c(=O)cc(C(F)(F)F)c12
  -25	0	13	4216	5	7	18
18: O=C(O)CCCC(=O)NS(=O)(=O)c1ccc(Cl)cc1
  -9	8	1.4	4737	1	/	/
19: CCOC(=O)CSC1=C(C#N)C(c2ccccc2Cl)C(C(=O)OC)C(=O)N1 (configuration not stated)
  2	-5	1.1	20786*	-6	-2	0
20: CCCCCCCCCCCC(=O)NC(Cc1ccc(OC)c([N+](=O)[O-])c1)C(=O)O (configuration not stated)
  -27	-5	7.5	3369	9	11	1
21: COc1ccc(C(CCc2cc(OC)c(OC)c(OC)c2)NC(C)=O)cc1 (configuration not stated)
  -15	/	17	3676	7	20	9
22: COc1ccc(C(=O)NC(=S)NNC(=O)c2ccccc2O)cc1
  -5	-6	34	3091	9	11	0
23: COc1ccc2[nH]c3c(=O)n4c(nc3c2c1)SCCC4
  -40	-9	5.3	4062	0	3	5
24: NC(Cc1ccc([N+](=O)[O-])cc1)=NOC(=O)COc1ccc2ccccc2c1
  /	/	-0.4	/	22	2	-5
25: COC(=O)c1ccccc1NC(=O)Nc1ccc(C)cn1
  -10	-5	2.7	4043	-4	9	14
26: O=C(COC(=O)COc1ccc(Cl)cc1)Nc1ccc(N2CCOCC2)cc1
  -11	-6	0.2	3298	6	11	1
27: N#C/C(=C\c1cccnc1)C(=O)Nc1ccc(C(=O)O)cc1
  -9	2	4.7	3417	5	11	12
28: C=C1c2ccc(C)cc2NC(=O)N1c1ccccc1
  /	-4	0.4	/	-2	/	/
29: Fc1ccc(CSc2nnc3ccccn23)c(Cl)c1
  -4	2	-1.8	3379	2	-8	13
30: COC(=O)c1ccc(NC(=O)c2ccco2)cc1
  -54	2	1.2	7581	-3	-4	13

Three compounds from above, ordered by SMILES length, low to high:
Each structure is followed by: PrP UTR inh	BJeLR viability	RN4220 kill	Bead autofluor	Sa ugtP lethal	Mtb hypoxia rep	Mtb hypoxia rep growth
13: CSc1nc2ccc(NS(=O)(=O)c3ccccc3F)cc2s1
  -13	2	-2.9	2592	30	15	11
11: CCOc1cc(-c2c(C#N)c(N)nc3c2CCCC3C)ccc1O (configuration not stated)
  -11	-6	6.8	4688	1	4	12
2: COc1cc(N2CCCC2)c(OC)cc1/C=C1/NC(=S)NC1=O
  -4	-5	2.5	7298	-4	10	-1

Further records:
Each structure is followed by: PrP UTR inh	BJeLR viability	RN4220 kill	Bead autofluor	Sa ugtP lethal	Mtb hypoxia rep	Mtb hypoxia rep growth
31: COc1cccc(NC(=O)CN(C)C(=O)C2CC(=O)N(CCc3ccc(OC)c(OC)c3)C2)c1 (configuration not stated)
  -4	/	3.1	4006	-2	4	-3
32: CCc1cccc(CC)c1NC(=S)Nc1cccc(Cl)c1Cl
  -33	2	-0.5	5862	-8	2	3
33: Cc1ccc(NC(=O)C(NC2CCCC2)c2ccccc2)cc1Cl (configuration not stated)
  -22	1	1.4	5907	9	5	5
34: CC(=O)Nc1ccc(NC(=O)c2cc(=O)c3cc(C)cc(C)c3o2)cc1
  3	22	4.0	3123	0	2	-4
35: COc1ccccc1NC(=O)C/C(N)=N/OCC(=O)Nc1cccc(Cl)c1
  -13	/	-2.7	8260	-7	7	15
36: CN(C1=C(NC(=O)c2ccccc2)C(=O)c2ccccc2C1=O)C1CCS(=O)(=O)C1 (configuration not stated)
  -19	8	32	2315	48	13	5
37: CCc1noc(C)c1C(=O)N(CCC(C)C)c1c(N)n(Cc2ccccc2)c(=O)[nH]c1=O
  3	1	3.1	4964	-3	-2	0
38: COC(=O)c1cccc(NC(=O)COc2cccc([N+](=O)[O-])c2)c1
  -30	-3	3.4	2034	-6	6	4
39: O=C(/C(=C/c1cccc(Cl)c1)c1nc2ccccc2[nH]1)c1ccccc1
  -82	14	34	2422	25	12	6
40: COc1ccc(OCc2nnc(NC(=O)Nc3ccccc3F)s2)cc1
  -27	-3	-1.3	/	12	-1	1
41: O=C(Nc1cccc(NC(=O)c2ccco2)n1)c1ccco1
  -16	-1	5.0	3098	-3	-4	5
42: CCO/C(C)=N/n1c2nc3ccccc3nc2c2c(=O)n(CC(C)C)c(C)nc21
  -2	0	/	2371	/	/	/
43: O=C(NNC(=O)c1cccs1)c1cccc(F)c1
  -4	-9	2.5	3036	1	-2	-1
44: CC(C)N=C1NN=C(c2ccc(F)cc2)CS1
  -8	9	2.8	4707	-6	-2	8
45: CN(CCCN1CCOCC1)Cc1nc(-c2ccccc2)no1
  -23	-4	4.3	2598	14	0	12
46: CCOc1ccc(CCNC(=O)C2CC(C)=CCC2C(=O)O)cc1OCC (configuration not stated)
  /	2	3.3	3677	4	5	-2
47: CSC1=C(C#N)C(C)CC(=O)N1 (configuration not stated)
  -70	4	-1.3	1930	2	-9	5
48: CC(=O)Nc1ccc(CCCCc2ccccc2)cc1
  -27	/	11	3801	-7	6	6
49: CCC(C)Sc1nc2c(cnn2-c2ccc(C)cc2)c(=O)[nH]1 (configuration not stated)
  0	-10	0.2	5607	-1	1	-1
50: CNC(=O)N(O)C1N(/N=C/c2ccccc2F)C(=S)SC1(C)C (configuration not stated)
  -17	-1	/	3823	/	/	/
51: COc1cc(C2C(C(C)=O)=C(O)C(=O)N2c2ccc(Br)cn2)ccc1O (configuration not stated)
  -20	5	1.6	/	4	4	-5
52: C#CCOCCOCCOCCNc1nc(N2CCN(C(=O)Cn3cc(CC(C)O)nn3)CC2)nc(N2CCN(C(=O)[C@H]([C@@H](C)CC)n3cc(CCCN=C(N)N)nn3)CC2)n1 (some centres not stated)
  -5	-2	/	4097	/	/	/
53: N#Cc1cc([N+](=O)[O-])cnc1Nc1ccccc1
  -29	0	0.9	2171	-2	0	5
54: CS(=O)(=O)c1ccc(C(=O)OCC(=O)NC(=O)Cc2ccccc2)cc1
  -6	-3	1.5	5176	3	2	3
55: C=CCNC(=O)c1nc2ccccc2s1
  -46	2	6.8	8246	-17	25	14
56: Cc1cc(N2CCCC2=O)cc(C)c1S(=O)(=O)NCCOc1ccccc1
  -6	3	7.6	8424	1	-2	4
57: COc1ccc(C)cc1NC(=O)CN(C)S(=O)(=O)c1ccc2c(c1)c(=O)n(C)c(=O)n2C
  -12	9	-13	6465	-2	4	7
58: CC[C@]12c3[nH]c4cc(CCC(=O)N(C)C)ccc4c3CCN1C(=O)[C@@H](CC(=O)NC(C)(C)C)C[C@@H]2C(=O)N1CCN(C(=O)C2CC2)CC1
  3	/	5.4	3758	-1	-1	5
59: O=C(CSc1nnnn1C1CC1)Nc1cccc(S(=O)(=O)N2CCCC2)c1
  -3	/	2.7	3546	-2	6	2
60: Cc1ccccc1NC(=O)CSc1nc2ncc(Cl)cc2[nH]1
  -4	10	4.4	4103	6	3	-6

Looked up by compound from the entries so far:
Each structure is followed by: PrP UTR inh	BJeLR viability	RN4220 kill	Bead autofluor	Sa ugtP lethal	Mtb hypoxia rep	Mtb hypoxia rep growth
41: O=C(Nc1cccc(NC(=O)c2ccco2)n1)c1ccco1
  -16	-1	5.0	3098	-3	-4	5
56: Cc1cc(N2CCCC2=O)cc(C)c1S(=O)(=O)NCCOc1ccccc1
  -6	3	7.6	8424	1	-2	4

Additional compounds follow:
Each structure is followed by: PrP UTR inh	BJeLR viability	RN4220 kill	Bead autofluor	Sa ugtP lethal	Mtb hypoxia rep	Mtb hypoxia rep growth
61: COc1ccccc1NC(=O)c1cc2cc(Br)ccc2cc1O
  -7	-2	99*	3569	100*	9	4
62: COc1ccc(NC(=O)c2cc(-c3ccc(OC)c(OC)c3)on2)cc1OC
  14	1	5.2	23014*	13	-1	-3
63: CCSc1nnc(NC(=O)CCn2c(=O)oc3ccccc32)s1
  -20	-10	-8.6	5987	-3	1	4
64: O=C(C1COc2ccccc2O1)N1CCN(c2ccccc2Cl)CC1 (configuration not stated)
  -28	-1	0.7	?	-2	4	4
65: COc1ccc(C(=O)NCCCN2CCOCC2)cc1OC
  -20	1	5.2	4491	0	2	4
66: CC(C)(C)NC(=O)NC(=O)CN1CCN(c2ccc(O)cc2)CC1
  0	10	5.1	3301	17	6	1
67: COc1ccc(C2=Nn3c(nnc3-c3ccccc3F)SC2)cc1OCC1CC1
  -43	/	5.9	3205	15	6	3
68: O=C(c1ccc(-c2cccc([N+](=O)[O-])c2)o1)N1CCN(c2ccc([N+](=O)[O-])cc2)CC1
  -1	/	8.8	5455	-2	10	1
69: O=C(Nc1ccc(C(=O)N2CCOCC2)cc1)Nc1cccc(Cl)c1
  -21	-10	2.2	2367	-5	5	2
70: CCCCOC(=O)Nc1cc(OC)c(Cl)cc1OC
  -28	0	18	23042*	0	3	8
71: Cc1ccc(NC(=O)CSCC(=O)Nc2cc(Cl)ccc2N2CCOCC2)cc1
  3	-2	9.9	5394	1	0	-1
72: O=C(Cn1nc(-c2ccccc2F)ccc1=O)NCc1ccc2c(c1)OCO2
  -4	-22	12	9278	-11	5	4
73: Cc1cccc(NC(=O)CCCN2C(=O)C(c3ccccc3)Oc3cccnc32)c1C (configuration not stated)
  1	10	5.2	4766	1	-3	-4

Entries of single compounds from above:
Cc1cccc(NC(=O)CCCN2C(=O)C(c3ccccc3)Oc3cccnc32)c1C (configuration not stated) in the list: PrP UTR inh: 1; BJeLR viability: 10; RN4220 kill: 5.2; Bead autofluor: 4766; Sa ugtP lethal: 1; Mtb hypoxia rep: -3; Mtb hypoxia rep growth: -4
CCSc1nnc(NC(=O)CCn2c(=O)oc3ccccc32)s1 in the list: PrP UTR inh: -20; BJeLR viability: -10; RN4220 kill: -8.6; Bead autofluor: 5987; Sa ugtP lethal: -3; Mtb hypoxia rep: 1; Mtb hypoxia rep growth: 4
CCCCCCCCCCCC(=O)NC(Cc1ccc(OC)c([N+](=O)[O-])c1)C(=O)O (configuration not stated) in the list: PrP UTR inh: -27; BJeLR viability: -5; RN4220 kill: 7.5; Bead autofluor: 3369; Sa ugtP lethal: 9; Mtb hypoxia rep: 11; Mtb hypoxia rep growth: 1
